# Screening data (PubChem BioAssay)
# A1 inh: inhibitors of the anti-apoptotic protein A1, read as caspase activation; AID 2462; caspase activation, % (test concentration not listed); MEF A1-2A-BIM cells, Caspase-Glo 3/7 luminescence, 3 h; percent of clofoctol response, vehicle zero; actives 0.066% (n = 330,000);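 active = over half of replicate activation scores above 10%, or exactly half above 10 with the replicate mean above 10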;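 also: wells of about 30 µL received 50 nL stock; many hits fall short of the cut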
# rRNA inh HTS: inhibitors of bacterial rRNA selective over humanized ribosomes. actives 1.6% (n = 350,000). E. coli WT GFP vs humanized-ribosome RFP mutants, fluorescence, 24 h; stronger effect = lower value; DMSO median 0, no signal -100. AID 720706. GFP signal change (wild-type ribosome), % (no concentration beside the values);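 active = significant combined selectivity score with lowered wild-type GFP, culture density cut under 30%, mutant RFP and density less affected; inactive = any of these conditions unmet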; also: one replicate is shown; some compounds called inactive have numbers as strong as hits
# ALR inh: blocks human ALR sulfhydryl oxidase activity; inhibition, % (concentration not given with the values); P55789; purified ALR, DTT oxidation, H2O2 HRP-luminol luminescence; AID 485317; actives 3.8% (n = 290,000);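 active = mean and each replicate at 75% or more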;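 also: stock transfer was 7.5 nL into about 7.5 µL; 0% = neutral wells and 100% = wells with inactivated enzyme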
# Target sequence (P55789 whole entry, looked up): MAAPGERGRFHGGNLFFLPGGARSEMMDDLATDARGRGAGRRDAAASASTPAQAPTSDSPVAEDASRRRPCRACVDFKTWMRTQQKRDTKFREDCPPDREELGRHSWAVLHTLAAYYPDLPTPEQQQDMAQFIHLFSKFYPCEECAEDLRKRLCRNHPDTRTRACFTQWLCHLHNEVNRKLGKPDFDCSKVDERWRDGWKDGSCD
# B2AR ag: activates human beta-2 adrenergic receptor causing internalization | P07550 | response, % (concentration not given with the values) | Am2.2-beta2AR cells, FAP receptor internalization, flow cytometry; reference of the scale not given here | actives 0.43% (n = 340,000);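 active = response above a set limit, near 3 SD of response in nonfluorescent compounds, cut at about 42% in these data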;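 also: stock transfer was 100 nL into about 11 µL; a reference agonist was the positive control; negative values mostly stem from fluorescent compounds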
# Target sequence (P07550 whole entry, looked up): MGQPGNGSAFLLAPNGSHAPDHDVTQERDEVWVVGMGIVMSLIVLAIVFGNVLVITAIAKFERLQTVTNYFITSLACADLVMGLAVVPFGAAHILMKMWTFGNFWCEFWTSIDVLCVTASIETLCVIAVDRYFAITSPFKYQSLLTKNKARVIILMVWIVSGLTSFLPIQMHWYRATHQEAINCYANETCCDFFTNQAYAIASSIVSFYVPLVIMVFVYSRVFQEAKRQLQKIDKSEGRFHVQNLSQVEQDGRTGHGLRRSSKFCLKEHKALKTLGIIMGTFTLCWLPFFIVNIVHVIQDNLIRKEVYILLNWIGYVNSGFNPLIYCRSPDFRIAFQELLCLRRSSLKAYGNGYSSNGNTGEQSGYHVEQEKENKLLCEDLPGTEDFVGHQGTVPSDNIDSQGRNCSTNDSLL
# LANA-H2B inh: blocks KSHV LANA binding to histone H2A/H2B. Q9QR71. cell-free LANA-H2A/H2B peptide, fluorescence polarization. inhibition, % (no concentration beside the values). actives 0.6% (n = 320,000). AID 2629; in the data active = inhibition mostly above about 10%, no sharp cut-off; inactive = mostly below about 6.7%;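 also: stock transfer was 7.5 nL into about 10 µL; 0% = median of vehicle wells and 100% = median of positive control wells; one replicate is shown; the record names a cut of 25% in any replicate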
# Calb FLC: affects C. albicans growth with fluconazole; AID 1979; actives 0.57% (n = 300,000); C. albicans CaCi-2 (fluconazole-resistant clinical isolate) + fluconazole, Alamar Blue growth, 48 h; growth inhibition, % (no concentration beside the values);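 active = most replicates above 75%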;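 also: all wells also contain fluconazole at 8 µg/ml as a sub-toxic cotreatment; 0% = median of DMSO wells and 100% = median of geldanamycin control wells; wells of about 8 µL received 7.5 nL stock; the first replicate is given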
# Beta cell apopt: blocks beta cell apoptosis. protection from apoptosis, % (no concentration beside the values). actives 0.8% (n = 300,000). INS-1E cytokine-induced death, ATP luminescence, 48 h; percent of positive-control rescue, neutral wells zero. AID 435005;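 active = all replicates at 75% or more, or half of them and the mean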;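 also: 0% = cytokine-treated negative control wells and 100% = positive control rescue; higher means more ATP so stronger rescue from cytokine killing; wells of about 40 µL received 100 nL stock; the first replicate is given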
# T cruzi repl: blocks replication of Trypanosoma cruzi. T. cruzi beta-gal in NIH3T3, luminescence, 90 h. inhibition, % (concentration not given with the values). actives 1.4% (n = 300,000). AID 1885;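 active = mean inhibition across valid replicates above about 55%, limit read from the data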;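 also: signal also drops with host cell toxicity which is not excluded here; 0% = plate median of DMSO wells and 100% = zero luminescence signal; higher percent means less beta-gal luminescence so fewer parasites; stock transfer was 50 nL into about 50 µL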
# rRNA inh HTS OD600: also measured in rRNA inh HTS; calls as there; OD600 change, %; measured here: OD600 growth;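 optical density of the mix in the first replicate; 0 = DMSO median and -100 = no signal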
# rRNA inh HTS RFP: recorded beside rRNA inh HTS, whose call it bears; RFP signal change, %; measured here: RFP humanized mutant strains;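 first replicate; 0 = DMSO median and -100 = no signal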
# Starred values were filed as active, the others as inactive; / = no result given.
# Values run as follows: LANA-H2B inh, ALR inh, rRNA inh HTS RFP, Calb FLC, rRNA inh HTS, A1 inh, rRNA inh HTS OD600, Beta cell apopt, B2AR ag, T cruzi repl
Cc1ccc(S(=O)(=O)N(C)C)cc1NC(=O)c1ccc(-n2cncn2)c([N+](=O)[O-])c1
 : -3.1, -9, -1.5, /, 7, -0.7, 4, -1, 0, /
CCSc1nc(-c2cccs2)nc2ccccc12
 : -0.6, 3, -1.2, 8, 7, -0.5, 7, -5, 3, -4
CSc1nc(N)nc2c1ncn2CC(=O)NCCCc1ccccc1
 : -0.7, /, 1.3, /, 1, -0.5, -2, 23, -5, /
CCOC(=O)CCC(=O)Nc1ccc(S(=O)(=O)N2CCCCC2)cc1
 : -2.6, -5, 2.3, -12, 11, 0.4, 10, -4, 6, -19
COCCN1CCc2c(C)nc3c(-c4ccc(OC)c(OC)c4)cnn3c21
 : 5.4, 41, /, 19, /, 0.1, /, 1, 1, 1
Cc1cccc(C(=O)O/N=C/c2c(N3CCOCC3)n(C)c3ccccc23)c1
 : -11, 2, /, 83*, /, -0.4, /, 97*, /, 73*
CC(=O)c1ccc(OCc2cc(C(=O)N(C)CCN3CCOCC3)no2)cc1
 : -6.9, -10, -0.9, 4, 5, 1.4, 7, -4, -5, -4
Cc1ccc(OCC(=O)NNC(=O)CCc2ccccc2)c(Br)c1
 : -0.9, -62, -2.8, -2, 0, -1.0, 0, -2, 9, -5
CCc1cc(=O)oc2c(CNCc3c(F)cccc3Cl)c(O)ccc12
 : -3.0, 8, 0.0, -1, -18, 0.8, -10, 0, -12, -10
O=C(CSc1nc2ccccc2c(=O)n1-c1ccc(F)cc1F)Nc1ccc2c(c1)CCC2
 : 2.1, -6, -2.2, -16, 2, 0.3, -5, 15, 1, 42
Cc1cc[n+](CC(=O)N2CCCc3ccccc32)cc1
 : -2.3, /, -2.2, -13, 9, 0.1, 14, -4, -2, -15
CCCCN(C(=O)CCC(=O)Nc1cc(C)on1)C(C(=O)NC(C)(C)C)c1cccc(OC)c1OC (stereo unspecified)
 : -6.4, 1, /, 1, /, -1.0, /, -4, -2, -1
CC(C)(C)C(=O)Cn1c(NCCO)nc2ccccc21
 : -3.1, 32, /, -14, /, 0.4, /, 1, 13, -21
O=C(OCc1nc2ccccc2[n+]([O-])c1C(=O)c1ccccc1)c1cccs1
 : -6.6, 40, /, 1, /, 0.0, /, -7, -14, 6
Cc1ccc(S(=O)(=O)N(CC(=O)Nc2cccnc2)c2cccc(Br)c2)cc1
 : -2.4, -37, -8.2, -3, -30, 1.5, -47, /, -2, 11
OCCN1CCN(c2ncnc3c2c(-c2ccccc2)cn3-c2ccc(Br)cc2)CC1
 : /, -7, -11, 28, -44, 0.4, -78, 5, 1, 32
O=C(Cc1ccc(Cl)cc1)NCC(=O)N1CCCCCC1
 : 0.1, -4, -1.5, -3, 12, 0.4, 13, 6, -3, -5
COc1ccc(-c2cn(-c3ccc(OC)cc3)c(=S)[nH]2)cc1
 : -4.5, -13, /, -21, /, -0.4, /, -7, 8, 2
CCO[C@@H]1OC(C(=O)N2CCN(Cc3ccc4c(c3)OCO4)CC2)=C[C@H](c2ccc(C(F)(F)F)cc2)[C@H]1CCCO
 : 1.5, -19, -5.2, 9, -17, 0.2, -48, 11, -1, 35
CN(C)/C=N/c1sccc1C(N)=O
 : 4.5, 2, 4.3, -11, 3, -0.6, 3, -3, 2, 4
COc1ccc(-c2nn(C)c(=O)c3ccccc23)cc1CNS(C)(=O)=O
 : 2.6, 0, /, -6, /, -0.7, /, -3, -2, -3
CS(=O)(=O)Nc1ccc(Oc2ncccn2)cc1
 : -1.0, -14, 0.2, -7, 9, 0.2, 12, -1, 11, -11
Oc1ccc(/C=N/NC2=NCCCCC2)c(O)c1
 : 2.1, 81*, /, 2, /, -3.9, /, -2, 0, -40
O=C(c1ccccc1)c1ccc(OCCOCCN2CCN(Cc3ccccc3)CC2)cc1
 : 3.3, -15, -4.0*, -18, -36*, -0.4, -27*, 0, 8, 51
COc1cc(C2SCC(=O)N2CCc2ccc(OC)c(OC)c2)ccc1O (stereo unspecified)
 : 1.0, 32, 1.0, -20, -7, 0.1, 2, -6, -2, 2
COCCCNC(=O)Cc1c(C)c2c(cc(C)c3c(C(C)(C)C)coc32)oc1=O
 : -1.7, 0, -10, 7, -53, 1.3, -76, 8, 10, 20
COc1cc(/C=N/OCC(=O)Nc2cc(C)cc(C)c2)ccc1OCc1ccc(Cl)cc1
 : -5.4, -13, 2.1, 0, 7, 0.0, -3, -8, 5, 12
CNC(=O)CN1C(=O)c2cccc3cccc1c23
 : -4.9, -19, /, 0, /, 1.9, /, -1, -2, -6
CCN(CC)C(=O)c1ccc(-c2nnc(Nc3ccc(C(=O)N(C)C)cc3)c3ccccc23)cc1
 : -2.5, 0, -7.1, 10, -18, -0.6, -21, 0, 9, -1
COc1cccc(/C=N/NC(N)=S)c1OCc1ccccc1Cl
 : 12, /, -1.8, -45, -12, -0.6, -7, 6, 2, 59*

# Some of the entries so far, as comma-separated lines.
SMILES,LANA-H2B inh,ALR inh,rRNA inh HTS RFP,Calb FLC,rRNA inh HTS,A1 inh,rRNA inh HTS OD600,Beta cell apopt,B2AR ag,T cruzi repl
COCCCNC(=O)Cc1c(C)c2c(cc(C)c3c(C(C)(C)C)coc32)oc1=O,-1.7,0,-10,7,-53,1.3,-76,8,10,20
COc1ccc(-c2nn(C)c(=O)c3ccccc23)cc1CNS(C)(=O)=O,2.6,0,/,-6,/,-0.7,/,-3,-2,-3
COc1cc(C2SCC(=O)N2CCc2ccc(OC)c(OC)c2)ccc1O (stereo unspecified),1.0,32,1.0,-20,-7,0.1,2,-6,-2,2
CS(=O)(=O)Nc1ccc(Oc2ncccn2)cc1,-1.0,-14,0.2,-7,9,0.2,12,-1,11,-11
Cc1ccc(OCC(=O)NNC(=O)CCc2ccccc2)c(Br)c1,-0.9,-62,-2.8,-2,0,-1.0,0,-2,9,-5
Cc1cc[n+](CC(=O)N2CCCc3ccccc32)cc1,-2.3,/,-2.2,-13,9,0.1,14,-4,-2,-15

# (more compounds)
# Values run as follows: LANA-H2B inh, ALR inh, rRNA inh HTS RFP, Calb FLC, rRNA inh HTS, A1 inh, rRNA inh HTS OD600, Beta cell apopt, B2AR ag, T cruzi repl
Cc1ccc(C)c(NC(=O)CSc2nnc(-c3ccco3)o2)c1
 : 1.9, -3, /, -24, /, 2.3, /, 6, 15, -7
COc1ccc(CN2C(=O)c3cccnc3C2Nc2ccc(OC)c(Cl)c2)cc1 (stereo unspecified)
 : /, /, 0.6, -27, -15, /, -3, /, -11, 25
CCCOc1ccc2c(=O)c(N3C(=O)c4ccccc4C3=O)c(C)oc2c1
 : 0.6, /, /, 5, /, -0.6, /, 2, -3, -5
COc1cc(Br)c(CC(=O)O)cc1OC
 : 1.7, -2, /, -7, /, 0.6, /, 0, /, -8
COc1ccc(S(=O)(=O)NC2CC2)cc1C(=O)N1CCOCC1
 : 0.7, -1, -1.8, 2, 7, 1.6, 5, 0, -1, -16
O=C(CSc1nnnn1-c1ccccc1)N1N=CCC1c1ccccc1 (stereo unspecified)
 : -2.7, 0, /, -6, /, 1.6, /, 1, -11, 25
COC(=O)C1=C(C)N(C)C(=O)NC1c1ccc(C)cc1 (stereo unspecified)
 : 1.5, 7, 5.4, -15, -2, 0.2, 0, 3, -5, -1
O=C(O)c1c2c(nc3ccc(S(=O)(=O)N4CCC(C(=O)NCc5ccccc5Cl)CC4)cc13)CCCC2
 : -0.3, -14, -1.9, 17, 1, -1.0, -4, /, 0, 7
COc1ccc(N2CCN(CC(=O)c3ccc(O)cc3O)CC2)cc1
 : 6.6, 41, -0.3, -2, 7, -0.5, 18, -2, 1, -8
O=c1[nH]c2ccccc2nc1/C=C(\O)C1CC1
 : 4.6, 1, /, 11, /, -1.6, /, -3, -17, -2
COCCNC(=O)C1c2ccccc2C(=O)N(CCOC)C1c1ccc(F)cc1 (stereo unspecified)
 : -2.3, 3, /, -7, /, 1.1, /, -1, 4, -3
C=Cc1ccc(Cn2c(=O)n(CCCOC)c(=O)c3sccc32)cc1
 : 5.3, -16, -0.1, 4, 15, 0.5, 12, /, -10, -1
O=C(CCc1nnc(C2CCCCC2)o1)N1CCC(Oc2cccnc2)CC1
 : 3.1, -2, 5.0, -3, 12, -1.7, 5, -2, -5, 6
COc1ccc(CNC(=O)Cc2nn(C)c(=O)c3ccccc23)cc1
 : 3.8, -21, /, -9, /, -0.9, /, 26, 0, /
COc1cc2c(cc1OC)/C(=C/C(=O)c1ccc(OC)c([N+](=O)[O-])c1)NCC2
 : 9.6, 28, 3.3, 1, 0, 0.2, 1, -6, 8, 25
Cc1ccc(C)c(N2N=C(C(=O)Nc3cccnc3)CCC2=O)c1
 : 3.9, -3, /, /, /, 0.8, /, -2, -3, /
O=c1cc(CSc2ccccn2)nc(N2CCN(c3ccccc3)CC2)[nH]1
 : 4.1, 28, /, 7, /, 0.9, /, /, 7, -19
CCCC(C(=O)NCCC(C)C)N(Cc1ccc(F)cc1)C(=O)c1snc(C(N)=O)c1N (stereo unspecified)
 : -0.1, -13, -4.8, 3, -21, 0.5, -17, 9, 9, 11
CN1CCN(C(=O)/C(C#N)=C/c2ccc(F)cc2)CC1
 : 0.1, /, -4.6, 8, 11, 0.0, 12, -1, 7, -7
Cc1nc2ccc(NC(=O)C3COc4ccccc4O3)cc2s1 (stereo unspecified)
 : -3.1, /, -0.9, 16, -15, -3.5, 4, 0, 1, -26
COc1ccc(S(=O)(=O)NCc2cccnc2)cc1NC(=O)c1ccc(C)cc1
 : 1.9, -2, 0.1, -3, -3, 0.1, -6, /, -4, -11
COc1cc(OC)cc(C(=O)N2c3ccc(F)cc3CCC2C)c1 (stereo unspecified)
 : 0.7, -1, /, -5, /, 1.6, /, -6, 1, 1
C[C@@H](CN=[N+]=[N-])CN1CC[C@H](C(C)(C)C)CCC1=O
 : 0.7, 6, -0.2, -10, 9, 0.8, 9, -6, 4, -6
Cc1oc(-c2ccc(Cl)cc2)nc1CN1CCC(C(=O)NCc2ccco2)CC1
 : -6.7, -7, /, -16, /, 0.8, /, -7, 11, -6
CCC(=O)Nc1ccc(C(=O)Nc2ccc3c(c2)OCO3)cc1
 : 4.9, 8, /, -7, /, -0.8, /, 5, -7, -7
COc1ccc(C(C(=O)NCC2CCCO2)N(Cc2ccccc2)C(=O)CNC(=O)c2ccco2)cc1OC (stereo unspecified)
 : 0.3, 47, -5.4, 5, 6, 0.4, 4, -7, -4, -1
Cc1sc2nc(CSc3ccc([N+](=O)[O-])cc3)[nH]c(=O)c2c1C
 : -7.4, 99*, /, 2, /, -0.9, /, -4, /, 5
Cc1ccccc1C(=O)Nc1nnc(S(=O)(=O)N2CCCCC2)s1
 : -4.6, -3, -7.8, -5, 4, -1.2, 9, 11, 7, -11
COC(=O)[C@H](Cc1ccccc1)NC(=O)N1CCN(Cc2ccccc2)CC1
 : 4.1, -2, /, 0, /, 0.3, /, 0, 6, -5
CCC(=O)NC(=S)Nc1ccc(NC(=O)c2cccnc2)cc1
 : 0.4, -8, -0.1, -11, 13, -1.0, 6, -2, 10, -4
COc1ccc(C2C(C(C)=O)=C(O)C(=O)N2c2nccs2)cc1OC (stereo unspecified)
 : -0.2, -16, /, -1, /, 0.2, /, -4, 8, -3

# A portion of the library; count on the stated rates, not on these rows.
